# Source: PubChem
# HNF4A DNA FP = change in binding of human HNF4A to DNA, primary screen, biochemical, fluorescence polarization, FITC-DNA | 1 h | activity change, % at 10 µM | actives 0.3% (n = 360,000); in the data active = activity change above about 30%, passing the limit was not always enough;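 also: controls were the assay level and a saturating level of protein; the project sought stronger binding though the title names inhibitors; some compounds called inactive have numbers as strong as hits; positive values seem to mean higher polarization but the record does not say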
# Target sequence (P41235 whole entry, looked up): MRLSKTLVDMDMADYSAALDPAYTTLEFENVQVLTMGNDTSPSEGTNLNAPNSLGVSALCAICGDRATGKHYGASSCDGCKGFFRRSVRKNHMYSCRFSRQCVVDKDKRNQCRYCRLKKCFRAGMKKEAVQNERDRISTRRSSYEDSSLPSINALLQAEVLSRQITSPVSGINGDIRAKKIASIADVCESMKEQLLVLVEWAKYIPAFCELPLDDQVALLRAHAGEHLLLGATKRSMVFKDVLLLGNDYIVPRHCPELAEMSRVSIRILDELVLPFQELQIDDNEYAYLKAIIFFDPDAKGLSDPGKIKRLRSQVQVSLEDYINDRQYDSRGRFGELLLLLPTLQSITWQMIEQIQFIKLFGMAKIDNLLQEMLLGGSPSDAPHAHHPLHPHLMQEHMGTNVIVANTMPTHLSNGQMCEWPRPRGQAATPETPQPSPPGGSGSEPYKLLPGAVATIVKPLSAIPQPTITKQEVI
# Vif TR-FRET = inhibitors of Vif binding to APOBEC3G peptide, primary screen, biochemical, TR-FRET, GST-Vif 1-94, biotin-A3G peptide, dose response retest (AID 1117319). TR-FRET GST-Vif / biotin-A3G peptide binding; higher % means a stronger effect; test concentration not given here; strong numbers were not always called active. Virion infectivity factor (Human immunodeficiency virus type 1 group M subtype B (isolate …. actives 0.57% (n = 260,000). one-dose inhibition, %; IC50 in µM for titrated hits;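 active = above the screen mean plus three standard deviations and confirmed in dose response; inconclusive = results disagree or hit not tested in dose response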;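 also: Vif residues 1-94 fused to GST binding biotinylated APOBEC3G peptide 110-148; 0% = full assay without inhibitor and 100% = GST in place of GST-Vif; retest series ran down from 100 µM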
# E coli growth = E. coli growth inhibition, primary screen, OD600 | OD600 absorbance (concentration not given with the values) | AID 1053175, 2014 | actives 0.21% (n = 330,000) | Escherichia coli growth, 23 h; hits give low values;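 active = OD600 absorbance below the run mean of sample wells minus 3.6 SD, in any replicate, cut at about 0.56 in these data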;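 also: stock transfer was 300 nL into about 60 µL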
# AF4-AF9 inh = inhibitors of AF4 peptide binding to AF9, primary screen, biochemical, AlphaScreen, biotin-AF4 peptide, FLAG-AF9, single point; AID 651704, 2012; inhibition, % at 10 µM; actives 0.47% (n = 350,000);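 active = every replicate reaching a set inhibition limit, whatever the replicate mean, cut at about 25% in these data; inconclusive = mean inhibition reaches that limit but some replicates miss it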;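 also: 0% = plate neutral control median and 100% = total signal loss; the record names both 10 and 1 µM as test concentration; the first replicate is given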
# Target sequence (P42568 whole entry, looked up): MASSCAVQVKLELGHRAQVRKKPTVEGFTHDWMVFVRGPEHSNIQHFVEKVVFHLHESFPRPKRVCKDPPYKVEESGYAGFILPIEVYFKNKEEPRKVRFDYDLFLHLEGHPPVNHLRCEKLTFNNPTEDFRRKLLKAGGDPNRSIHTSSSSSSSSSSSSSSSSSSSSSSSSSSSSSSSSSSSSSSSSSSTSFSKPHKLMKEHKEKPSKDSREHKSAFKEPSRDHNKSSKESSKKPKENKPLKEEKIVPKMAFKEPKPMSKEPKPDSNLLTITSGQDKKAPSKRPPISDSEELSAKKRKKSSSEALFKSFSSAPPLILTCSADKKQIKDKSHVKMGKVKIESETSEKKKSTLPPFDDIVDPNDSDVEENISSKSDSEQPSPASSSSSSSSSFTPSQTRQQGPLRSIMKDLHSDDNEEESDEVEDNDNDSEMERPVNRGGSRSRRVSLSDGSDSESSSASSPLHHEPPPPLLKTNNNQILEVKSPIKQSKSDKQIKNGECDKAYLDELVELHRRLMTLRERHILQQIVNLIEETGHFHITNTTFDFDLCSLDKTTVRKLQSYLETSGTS
# FGF22 binding = binders of human FGF22 protein, primary screen, FGF22 synaptogenesis inhibitor project, biophysical, thermal shift, single point | Fibroblast growth factor 22 (Homo sapiens), Q9HCT0 | actives 1.5% (n = 340,000) | recombinant FGF22 thermal shift, SYPRO orange fluorescence; percent of sucrose octasulfate shift, DMSO zero | calls only at 9.99 µM;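 active = melting point raised past a set limit in the mean and every replicate; inconclusive = no clear call; three in four hits are not shown here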
# rRNA inh HTS = reduced GFP signal of wild-type E. coli, primary screen, bacterial rRNA inhibitor project, GFP/RFP fluorescence, OD600, single point; AID 720706, 2013; GFP signal change (wild-type ribosome), % (concentration not given with the values); E. coli WT GFP vs humanized-ribosome RFP mutants, 24 h; hits give low values; DMSO median 0, no signal -100; actives 1.6% (n = 350,000);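 active = significant combined selectivity score with lowered wild-type GFP, culture density cut under 30%, mutant RFP and density less affected; inactive = any of these conditions unmet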; also: one replicate is shown; some compounds called inactive have numbers as strong as hits
# ALR inh = inhibitors of human ALR sulfhydryl oxidase, primary screen, biochemical, H2O2 detection, HRP-luminol luminescence, single point; FAD-linked sulfhydryl oxidase ALR (Homo sapiens), P55789; purified ALR, DTT oxidation; inhibition, % (test concentration not listed); actives 3.8% (n = 290,000);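 active = mean and each replicate at 75% or more; inconclusive = only one of the two met; inactive = neither met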;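 also: stock transfer was 7.5 nL into about 7.5 µL; 0% = neutral wells and 100% = wells with inactivated enzyme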
# rRNA inh HTS OD600 = also measured in rRNA inh HTS; calls as there; OD600 change, %; measured here: OD600 growth;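 optical density of the mix in the first replicate; 0 = DMSO median and -100 = no signal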
# rRNA inh HTS RFP = recorded beside rRNA inh HTS, whose call it bears; RFP signal change, %; measured here: RFP humanized mutant strains;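 first replicate; 0 = DMSO median and -100 = no signal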
# Starred values were filed as active, the others as inactive; i = inactive; ? = inconclusive; / = not tested or not shown. Some of the compounds tested; rates above refer to the full screens.
smiles	ALR inh	FGF22 binding	rRNA inh HTS	HNF4A DNA FP	E coli growth	rRNA inh HTS OD600	AF4-AF9 inh	Vif TR-FRET	rRNA inh HTS RFP
O=C(Cn1cnc2cc([N+](=O)[O-])ccc2c1=O)Nc1ccccc1Cl	-3.3	i	15.3	0.3	0.71	4.1	-7.9	?	-1.3
COCC#Cc1ccc([C@@H]2[C@@H](CO)N3CCCCN(Cc4cncnc4)C[C@@H]23)cc1	/	i	1.4	/	/	5.4	-1.3	/	2.4
Cc1ccc(Cn2c(N/N=C/c3ccncc3)nc3c2c(=O)n(C)c(=O)n3C)cc1	97.2*	i	-10.1	4.3	/	12.6	9.1	/	0.1
O=C(C(Cc1ccccc1)n1cccc1)N1CCN(c2ccccc2)CC1 (centres undefined)	/	i	4.6	-0.5	0.791	-21.6	-5.4	2.8%	-3.8
O=C(C[C@@H]1CC[C@@H]2[C@H](COC[C@H](O)CN2Cc2ccc3c(c2)OCO3)O1)Nc1ccc(-c2ccccc2)cc1	/	i	-0.7	/	/	-18.9	0.2	/	29.5
COc1ccccc1CNC(=O)C(NC(=O)C1CCCCC1)C(C)C (centres undefined)	-3.5	i	2.4	2.8	0.697	5.5	-40.8	/	2.2
COC(=O)c1sc(N(C)C)c(C#N)c1-c1ccccc1	-1.6	i	-9.0	-1.2	0.673	-10.3	/	-4.1%	-3.7
O=C(COC(=O)C12CC3CC(CC(O)(C3)C1)C2)Nc1cccc(Br)c1	/	i	-3.3	2.8	0.665	-9.5	1.0	3.5%	-0.8
CCCCC1CCC(C(=O)NC2CCS(=O)(=O)C2)CC1 (centres undefined)	-1.5	/	/	4.8	0.734	/	/	18.1%	/
O=C(/C=C/c1ccccc1)NC(=S)Nc1ccc(CN2CCOCC2)cc1	-7.9	i	-7.3	0.7	0.703	-9.3	3.6	/	-2.9
Cc1ccc(S(=O)(=O)N(CC(=O)Nc2ccc(C)cc2C)C(=O)N2CCN(C)CC2)cc1	/	i	20.4	1.3	0.631	12.8	-1.1	-1.9%	1.6
CC(C)c1ccc(CNC(=O)C2CC(=O)N(C3CCCCC3)C2)cc1 (centres undefined)	0.3	i	-1.3	2.3	0.715	-0.5	1.2	-2.8%	-4.3
CC(C)(C)c1nnc2sc(SCC(=O)N3CCCCC3)nn2c1=O	22.1	i	-4.9	2.2	0.72	-4.3	-2.8	-7.4%	-0.9
C[C@@H]1CN([C@@H](C)CO)C(=O)Cc2cc(NS(=O)(=O)c3ccc(Cl)cc3)ccc2O[C@@H]1CN(C)Cc1ccc(C(=O)O)cc1	/	i	1.8	/	/	7.5	1.8	/	-1.1
CCc1ccc(S(=O)(=O)Nc2c(C)nc3nc[nH]n3c2=O)cc1	22.0	i	2.9	-0.4	0.688	18.1	-8.0	11.0%	1.0
Cc1ccccc1S(=O)(=O)Cc1ccc(C(=O)N2CCN(c3ccccc3F)CC2)o1	-9.4	i	-8.5	3.0	0.666	-18.9	3.9	-6.0%	1.0
CO[C@H]1CN(C)C(=O)c2cc(NS(=O)(=O)c3ccccc3F)ccc2OC[C@H](C)NC[C@@H]1C	/	i	4.0	/	/	4.2	-1.4	/	0.1
CC1(C(=O)NS(=O)(=O)Cc2ccccc2)CCN1C(=O)c1ccc(C2CCCCC2)cc1 (centres undefined)	/	i	-12.8	2.0	/	-13.0	-1.3	/	-2.2
COCCNC(=O)c1cc(S(=O)(=O)N(C)c2ccccc2OC)ccc1C	-3.7	i	7.2	-1.9	0.643	3.7	-19.9	-8.0%	-1.4
Fc1ccc2c(c1)/C(=N/Nc1ccccn1)CCS2	98.7*	i	-22.4*	-0.1	/	-17.1*	17.4	/	0.4*

# Part of the list above with just rRNA inh HTS OD600, rRNA inh HTS RFP and FGF22 binding:
molecule | rRNA inh HTS OD600 | rRNA inh HTS RFP | FGF22 binding
CC(C)(C)c1nnc2sc(SCC(=O)N3CCCCC3)nn2c1=O | -4.3 | -0.9 | i
C[C@@H]1CN([C@@H](C)CO)C(=O)Cc2cc(NS(=O)(=O)c3ccc(Cl)cc3)ccc2O[C@@H]1CN(C)Cc1ccc(C(=O)O)cc1 | 7.5 | -1.1 | i
COC(=O)c1sc(N(C)C)c(C#N)c1-c1ccccc1 | -10.3 | -3.7 | i
Cc1ccc(S(=O)(=O)N(CC(=O)Nc2ccc(C)cc2C)C(=O)N2CCN(C)CC2)cc1 | 12.8 | 1.6 | i

# Carrying on.
smiles	ALR inh	FGF22 binding	rRNA inh HTS	HNF4A DNA FP	E coli growth	rRNA inh HTS OD600	AF4-AF9 inh	Vif TR-FRET	rRNA inh HTS RFP
O=C(CN1C(=O)CSC1=O)Nc1ccccc1N1CCOCC1	/	/	/	2.6	0.736	/	/	>100µM*	/
COc1ccc(OC)c(C(O)c2ncc(-c3ccc(C(F)(F)F)cc3)[nH]2)c1 (centres undefined)	/	i	-49.6	2.9	/	-74.2	0.0	/	-13.2
COc1ccc(N2CCN(CC(=O)NC(C)c3ccccc3)CC2)cc1 (centres undefined)	95.1*	i	-4.4	3.9	0.665	1.0	3.9	-0.2%	1.2
Cc1ccc(-n2cccc2/C=C2/C(=N)N3C(=NC2=O)SN=C3S(C)(=O)=O)cc1	97.8*	/	/	8.8	0.709	/	/	?	/
CN(C)S(=O)(=O)c1ccc2oc(SCC(=O)Nc3ccccc3F)nc2c1	/	i	2.0	1.9	0.67	2.4	-12.4	0.0%	-5.3
CC(=O)Nc1ccc(/C=C/c2nc3ccccc3[nH]c2=O)cc1	2.0	i	-9.1	4.9	0.704	-3.1	-9.6	-4.1%	-4.0
O=C(CCCCn1c(=O)c2ccccc2n(CC(=O)Nc2ccc(F)cc2)c1=O)NCc1ccco1	0.6	/	/	-1.8	0.737	/	/	1.5%	/
CC(C)CCN(C(=O)CNC(=O)c1ccco1)C(C(=O)NC1CCCCC1)c1cccnc1 (centres undefined)	-2.6	i	4.8	0.1	0.662	5.2	7.8	/	-1.5
Cc1ccc(N=Nc2ccc(O)c3ncccc23)cc1C	-22.5	i	21.9	-6.3	0.742	17.2	7.1	16.3%	4.0
C[C@H](CO)N1C[C@H](C)[C@@H](CN(C)C(=O)OCc2ccccc2)OCc2cnnn2CCCC1=O	/	i	0.4	/	/	-2.9	-0.2	/	-0.5
CCOc1ccc(C(=O)N[C@H](C(=O)Nc2ccccc2OC)C(C)C)cc1	-1.8	i	7.3	-1.4	0.656	-1.1	-2.1	/	0.5
Oc1c(CN2CCOCC2)cc(CN2CCOCC2)cc1CN1CCOCC1	/	i	13.1	0.1	0.679	31.1	-2.6	-5.7%	-0.5
COc1ccc(C2C(C(=O)NCc3ccco3)CCC(=O)N2c2ccc(OC)cc2)cc1 (centres undefined)	2.3	/	/	0.0	0.672	/	/	0.4%	/
CCOc1ccc(-c2c(C(=O)N/N=C/C3CCCCC3)nnn2-c2nonc2N)cc1	-4.0	i	1.8	0.8	/	2.7	-0.2	/	-0.7
C[C@@H]1CCCCO[C@@H](CN(C)C(=O)c2ccncc2)[C@H](C)CN([C@@H](C)CO)C(=O)c2cc(NC(=O)Cc3ccccc3)ccc2O1	/	i	4.9	/	/	-1.2	1.0	/	-1.1
Cc1c(NC(=O)Nc2ccccc2)c(=O)n(-c2ccccc2)n1C	-7.3	i	18.2	1.5	0.685	22.1	3.4	-3.7%	1.8
C[C@@H]1CCCCO[C@@H](CN(C)Cc2ccc(C(F)(F)F)cc2)[C@H](C)CN([C@@H](C)CO)C(=O)c2cc(NC(=O)Nc3ccc4c(c3)OCO4)ccc2O1	/	i	2.5	/	/	5.7	4.2	/	-2.2
CCC(=O)Nc1cc2c3c(c1)CCC(=O)N3CCC2	1.9	i	1.5	2.7	0.716	3.2	0.4	/	-3.4
COc1ccc(CN(C)C[C@H]2Oc3ccc(NS(=O)(=O)c4ccc(F)cc4)cc3CC(=O)N([C@@H](C)CO)C[C@H]2C)cc1	/	i	-4.0	/	/	-14.2	0.0	/	4.5
O=C(COC(=O)/C=C/c1ccc(Br)o1)NC1CCCCC1	6.1	i	12.2	-9.1	0.687	25.6	-1.6	9.4%	-0.7

# (further entries)
smiles	ALR inh	FGF22 binding	rRNA inh HTS	HNF4A DNA FP	E coli growth	rRNA inh HTS OD600	AF4-AF9 inh	Vif TR-FRET	rRNA inh HTS RFP
CC(=O)Nc1ccc2c(c1)C(=O)N(C)[C@@H]1CC[C@@H](CC(=O)NCc3ccccc3)O[C@H]1CO2	/	i	7.1	/	/	10.2	-0.9	/	2.3
CN1c2ccc(Br)cc2[C@H]2[C@H](CCN2C(=O)Cc2ccccc2)[C@H]1CO	/	i	-13.6	/	/	-40.1	-2.2	/	2.4
COc1ccc(OCC(=O)Nc2cccc3ncccc23)cc1	-12.3	/	/	1.5	0.732	/	/	4.8%	/
O=C(CSc1nnnn1-c1ccc(F)cc1)NNC(=O)c1ccco1	/	i	10.1	1.9	0.651	2.6	-3.3	-8.1%	2.1
COc1ccc(CN(C)C[C@@H]2Oc3ccc(NC(=O)CCN4CCOCC4)cc3C(=O)N([C@H](C)CO)C[C@@H]2C)cc1	/	i	6.1	/	/	4.1	0.7	/	-1.2
N#CCCN(C(=O)CSc1ncccn1)c1ccc2c(c1)OCCO2	-2.5	i	3.1	7.2	0.711	9.2	6.1	10.6%	-1.0
Cc1ccc(OCCOCCN2CCN(C)CC2)c([N+](=O)[O-])c1	-3.4	i	2.4	-0.3	0.716	1.9	1.5	6.1%	-0.1
CCOC(=O)C(C(=O)OCC)C(Nc1ccccc1)c1ccccc1 (centres undefined)	-1.0	i	3.5	-0.7	0.693	-0.5	2.0	-0.3%	2.9
O=C(N/N=C/c1ccccn1)c1ccc(S(=O)(=O)N2CCCCCC2)cc1	-15.3	i	6.1	-2.9	/	14.5	-0.6	5.2%	1.7
COc1ccccc1-c1ccc2c(c1)O[C@@H](CN(C)C(=O)Nc1cccc(F)c1)[C@@H](C)CN([C@@H](C)CO)S2(=O)=O	/	i	-4.1	/	/	3.1	1.2	/	0.9
O=C(NCC1(c2ccccc2)CCCC1)C(=O)NCC1(c2ccccc2)CCCC1	/	/	/	0.0	0.645	/	/	-3.1%	/
CC1CCCCN1S(=O)(=O)c1ccc2c(c1)CCN2C(=O)C1CC1 (centres undefined)	2.9	i	-2.6	3.1	0.674	4.6	-4.3	/	3.9
Cc1cc(N/N=C/c2ccccc2F)nc(NCc2ccccc2)n1	1.5	i	-29.6*	0.4	/	-10.4*	4.8	10.2%	0.9*
CC1CCCCC1NC(=O)C1CCN(S(=O)(=O)c2ccc3c(c2)CCC(=O)N3)CC1 (centres undefined)	65.7	i	10.4	4.7	0.736	5.3	4.3	0.2%	-9.3
Cc1ccc(NC(=O)c2ccc(N3C(=O)C4CC=C(Cl)CC4C3=O)cc2)cc1 (centres undefined)	0.3	i	-6.3	-0.3	0.661	-2.0	7.6	-7.5%	1.4
CN=C1SC(C(=O)Nc2ccccc2Cl)CC(=O)N1c1ccc(OC(F)(F)Cl)cc1 (centres undefined)	-23.7	i	12.5	1.3	0.705	0.0	-2.2	-3.7%	0.8
